quorum sensing – Vibrio cholerae quorum sensing activators, luminescence (AID 686977). V. cholerae quorum sensing reporter, luminescence, 6 h; higher luminescence means a stronger effect; most inactives read 0. one-dose luminescence at 50 µM unless noted; EC50 in µM for titrated hits. 9,400 tested, under 10 active;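 active = light above mean plus 3 SD and confirmed in a dose series; inconclusive = above that limit without a clear retest; inactive = below it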;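 note: raw light counts without normalisation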
Numbers without * were called inactive; u = inconclusive; [ ] = dose if it differs, or a comment.

SMILES | quorum sensing
COc1cc(-c2nnc(SCC(=O)c3ccc(C)cc3)o2)cc(OC)c1OC | 0
CO/N=C(\C(=O)N[C@@H]1C(=O)N2C(C(=O)O)=C(C[N+]3(C)CCCC3)CS[C@H]12)c1csc(N)n1 | 0[10 µg/mL]
CCOc1ccc(NC(=O)CCSc2nc3c(c(CC)c2C#N)C(=O)CC(C)(C)C3)cc1 | 40
O=C(O)CSC(NC(=O)c1cccnc1)(C(F)(F)F)C(F)(F)F | 0
O=C(Cc1c(C(=O)O)[nH]c2ccccc12)NCCN1CCN(c2ccccc2F)CC1 | u
COc1ccc(-c2nc(C#N)c(N3CCN(c4ccccc4)CC3)o2)cc1 | 0
N#Cc1c2c(c(NCc3cccnc3)n3c1nc1ccccc13)CCC2 | 0
O=C(CC(c1ccco1)C1CCCCC1=O)c1ccco1 (stereo unspecified) | 40
COc1cc2nc(SCC(N)=O)n(CCC3=CCCCC3)c(=O)c2cc1OC | 0
Cc1ccc(/C=c2\sc3nc(-c4ccco4)nn3c2=O)o1 | 0
Cn1c2ccccc2c2c(C(=O)O)cn(C3CCCC3)c(=O)c21 | 0
O=C(Nc1ccc2c(c1)OCCO2)C1CCCN1S(=O)(=O)c1cccc2cccnc12 (stereo unspecified) | 0
O=S(=O)(c1ccc(Br)cc1)N1CCCC1c1nc2ccccc2s1 (stereo unspecified) | 0
COc1ccc(-n2c(SC)nnc2-c2c[nH]c3ccccc23)cc1 | 0
COc1ccc(N2CCN(Cc3nc4c(c(=O)n(C)c(=O)n4C)n3CCc3ccccc3)CC2)cc1 | 0
O=C1CC(c2ccco2)Cc2nc(NCC3CCCO3)ncc21 (stereo unspecified) | 0
O=C(Nc1ccc(-c2nc3cccnc3s2)cc1)c1ccc(Br)o1 | 40
CCCc1nc2oc3c(OC)ncnc3c2c2c1COC(C)(C)C2 | 40
CC(C)CC(=O)Nc1ccc(C(=O)COc2ccc(-c3nnco3)cc2)cc1 | 40
CCOc1ccc(C(C)=O)cc1N1C(=O)C2C3C=CC(C3)C2C1=O (stereo unspecified) | 240
C#CCN(C)Cc1ccccc1 | 40[10 µg/mL]
CCn1c(SCC(=O)NCc2ccc(C)cc2)nnc1-c1ccncc1 | 0
CC1CCCCN1CCNc1nc(=S)[nH]c2ccccc12 (stereo unspecified) | 0
CCOc1ccc(-n2c(Cc3cc(=O)[nH]c(=O)[nH]3)nnc2SCC(=O)NC2CCCC2)cc1 | 0
Oc1c(CN2CCc3ccccc3C2)cc(Cl)c2cccnc12 | 0
Cc1ccc(C)c(C2(O)CC(C)N(C)CC2C)c1 (stereo unspecified) | u
O=C(c1cccc(F)c1)N1CCN(C(=O)c2nn3cccnc3c2Cl)CC1 | 40
ClC(=C\c1ccccc1)/C=N/N1CCN(c2ccccn2)CC1 | 40
Cc1cccc2sc(NC(=O)Cn3cccc3)nc12 | 0
CCOC(=O)c1ccccc1NC(=O)CN(c1ccccc1C)S(C)(=O)=O | 0
CC(NC(=O)C12CC3CC(CC(C3)C1)C2)c1ccc2c(c1)OCCO2 (stereo unspecified) | 0
COc1ccc(N2C(=O)CCC(C(=O)N3CCCCC3)C2c2ccc(OC)c(OC)c2)cc1 (stereo unspecified) | 40
CC(C)CCNC(=O)c1c(N)n(CC2CCCO2)c2nc3ccccc3nc12 (stereo unspecified) | 0
Cc1nc2ccc(S(=O)(=O)N(C)CC(=O)N3CCc4ccccc4C3)cc2s1 | 0
O=C(NCCN1C(=O)C2C3C=CC(C3)C2C1=O)Nc1ccccc1O (stereo unspecified) | 0
Cc1ccc(-n2c(C)cc(C(=O)OCC(=O)N(C)C3CCS(=O)(=O)C3)c2C)cc1 (stereo unspecified) | 40
CC(=O)N1CCN(c2ccc(NCc3ccc(C)s3)cc2)CC1 | 0
Cc1ccc(C)c(S(=O)(=O)N2CCC(c3nc4c(nnn4Cc4ccc(F)cc4)c(=O)[nH]3)CC2)c1 | 0
O=C(CSc1cn(CCNC(=O)c2cccs2)c2ccccc12)NC1CCCC1 | 0
COc1ccc(OCc2n[nH]c(=S)o2)cc1 | 0
Cc1ccc(-c2nnc(Cc3ccc(Cl)cc3)o2)cc1 | u
CCCNS(=O)(=O)c1ccc(CCC(=O)N2CCN(c3ccc(OC)cc3)CC2)cc1 | 0
CC(=O)N(C)c1ccc(NC(=S)Nc2ccccc2)cc1 | 40
C(#CCN1CCOCC1)COCCCOC(c1ccccc1)c1ccccc1 | 0
CCc1ccc(C(=O)N2CCCC2)s1 | 0
Cc1nc2c(-c3ccc(F)cc3)c(C)nn2c(C)c1CCC(=O)NCc1ccco1 | 40
C=CCNC(=O)C1CCN(S(=O)(=O)c2ccc(Br)cc2)CC1 | 200
Cc1ccc(C(=O)OCC(=O)Nc2ncc(Cl)cc2Cl)cc1NC(=O)c1ccco1 | 0
COc1ccccc1N1CCN(C(c2ccccn2)c2nnnn2C2CCCCC2)CC1 (stereo unspecified) | 0
CO[C@@H]1[C@@H](OC(N)=O)[C@@H](O)C(Oc2ccc3c(O)c(NC(=O)c4ccc(O)c(CC=C(C)C)c4)c(=O)oc3c2C)OC1(C)C (stereo partly specified) | 0[10 µg/mL]
COc1nc(Oc2ccc(=O)n(C)n2)nc(N(C)C)n1 | 40
CCOC(=O)C1CCCN(C(=O)Cn2nc(CC)n3c(cc4sccc43)c2=O)C1 (stereo unspecified) | 0
COc1ccc(OC)c2c1sc(=NC(=O)C(C)(C)C)n2C | u
CC(CCc1ccco1)NC(=O)c1cc2c(-c3ccccc3F)nn(C)c2s1 (stereo unspecified) | 0
CN(C1CCCCC1)S(=O)(=O)c1ccc(NC(=O)c2ccc(Br)o2)cc1 | 40
Oc1ccc2ccccc2c1C1Nc2cccc3cccc(c23)N1 | 0
O=C(COc1ccc2ccccc2c1)NCCn1ccc2ccccc21 | 40
Cc1ccccc1N1C(=O)c2cc(S(N)(=O)=O)c(Cl)cc2NC1C (stereo unspecified) | 0[10 µg/mL]
COc1ccccc1CNC(=O)C1CCCN(S(=O)(=O)c2cccc3cccnc23)C1 (stereo unspecified) | 0
COc1cc(S(=O)(=O)N2CCOCC2)ccc1NC(=O)c1cc2c(s1)CCC2 | 0

Going on with the list:
SMILES | quorum sensing
CCOC(=O)c1[nH]c2ccc(Br)cc2c1NC(=O)CCN1CCC(C)CC1 | 0
COc1ccc(S(=O)(=O)Cc2ccc(C(=O)NC(C)C)o2)cc1 | 40
O=c1c(/C=N/Nc2ccccc2)c(Sc2nnnn2-c2ccccc2)nc2ccccn12 | 0
Nc1nc2c(s1)CC(c1ccccc1)CC2 (stereo unspecified) | u
CC(C)CNC(=O)c1ccccc1NC(=O)Nc1ccccc1 | 40
COc1ccc2[nH]cc(S(=O)(=O)c3ccc(F)cc3)c(=O)c2c1 | 0
Cc1cccc(-n2c(-c3csc(C)c3)n[nH]c2=S)c1 | 0
Cc1cccc(Cn2c(SCC(=O)Nc3ccccc3)nc3c2c(=O)[nH]c(=O)n3C)c1 | 0
CCOc1ccc(-c2[nH]ncc2Oc2ccccc2OC)c(O)c1 | 0
CC(=O)N1CCN(C(=O)Nc2cccc(C(F)(F)F)c2)CC1 | 0
Fc1ccc(/C=C2\CCCC3=C2Nc2ncnn2C3c2ccc(F)cc2)cc1 (stereo unspecified) | 0
Cc1nc2sccn2c1-c1nc(-c2cc3ccccc3o2)cs1 | 0
CN(CC(=O)NCc1cccs1)S(=O)(=O)c1cccc2cccnc12 | 0
COc1ccc(CCNc2oc(-c3ccc(C)cc3)nc2C#N)cc1OC | 0
COc1cccc(C(c2sc3nc(C)nn3c2O)N2CCc3ccccc3C2)c1 (stereo unspecified) | 80
CCC(=O)NC(=S)Nc1ccc(NC(=O)COc2ccc(Cl)cc2Cl)cc1 | 0
CC(NC(=O)Cn1nc(C(F)(F)F)c2c1CCC2)c1ccccc1 (stereo unspecified) | 40
O=C1CN(C(=O)COc2ccccc2)CCN1 | 0
CCN(CC)CCNC(=O)COc1ccc(OC)cc1 | 0[10 µg/mL]
O=C(COc1ccccc1)N1CCN(C(=O)c2cccc(F)c2)CC1 | 0
CCC(=O)OCC(=O)C1(OC(=O)CC)[C@H](C)C[C@H]2[C@H]3[C@H]([C@@H](O)C[C@@]21C)[C@@]1(C)C=CC(=O)C=C1C[C@H]3Cl (stereo partly specified) | 40[10 µg/mL]
S=c1[nH]ncn1/N=C/c1ccccc1 | 40
CCOc1cc(S(=O)(=O)Nc2cc(C)cc(C)c2)ccc1Cl | 0
CCOC(=O)N1CCN(c2nc(-c3ccc(Cl)cc3)cs2)CC1 | 0

Two entries from above, as labelled records.
> CC(NC(=O)Cn1nc(C(F)(F)F)c2c1CCC2)c1ccccc1 (stereo unspecified)
- quorum sensing = 40

> CCN(CC)CCNC(=O)COc1ccc(OC)cc1
- quorum sensing = 0[10 µg/mL]

Further compounds:
SMILES | quorum sensing
Oc1ccccc1NCC(O)Cn1ccc2ccccc21 (stereo unspecified) | 0
Cc1c(NC(=O)NCCN2C(=O)C3C4C=CC(C4)C3C2=O)c(=O)n(-c2ccccc2)n1C (stereo unspecified) | 0
CNC(=S)N(Cc1ccc2c(c1)OCO2)C1CC(=O)N(c2ccc(F)cc2)C1=O (stereo unspecified) | 40
O=C(CSc1nc2ccccc2o1)NCc1ccc2c(c1)OCO2 | 0
Cc1ccc2oc(=O)c3cnn(CC(=O)NC4CCCCC4C)c3c2c1 (stereo unspecified) | 40
Cc1[nH]c2ccccc2c1SCC(=O)N1CCOCC1 | 0
c1ccc2c(-c3nc4ncccc4o3)cccc2c1 | 0
CCc1nc(NCC2CCCO2)c2oc3ccccc3c2n1 (stereo unspecified) | 0
CN1C(=O)N(C)C2C1N(C)S(=O)(=O)N2C (stereo unspecified) | 0
CCc1ccc(NC(=O)c2cnc3n(c2=O)CCS3)cc1 | 0
O=C1c2ccccc2C(=O)N1CC#CCN1CCN(C(c2ccccc2)c2ccccc2)CC1 | 0
CCOC(=O)N1CCN(c2c(NCc3ccc(N(C)C)cc3)c(=O)c2=O)CC1 | 0
C[N+]1(C)CCC(OC(=O)C(O)(c2ccccc2)C2CCCC2)C1 (stereo unspecified) | 40[10 µg/mL]
COc1ccc(C2(CNC(=O)CCC(=O)O)CCCC2)cc1OC | 40
CCOC(=O)c1cc(-c2ccccc2)nn1-c1ccccn1 | 0
Cc1nc2nc(C)c(CCC(=O)N3CCc4ccccc43)c(C)n2n1 | u
O=C1CSC2=NCN(c3ccccc3)CN12 | 0
O=C(c1ccccn1)c1ncc(C(F)(F)F)cc1Cl | 40
Cc1oc2ccc(O)cc2c1C(=O)c1ccc(Cl)cc1 | 0
CCOc1ccc(OCC)c(NC(=O)CCS(=O)(=O)c2ccc(Br)s2)c1 | 0
COc1ccc(-n2nccc2-c2nn(-c3cccc(OC)c3)c(=O)n(C)c2=O)cc1 | 0
CC1(C)CC(=O)c2cn3nc(C(F)(F)F)nc3nc2C1 | 40
N/C(COc1ccccc1)=N\NC(=O)c1cccnc1Oc1ccccc1 | 0
CC1=NCCc2c1[nH]c1cc(O)ccc21 | 0[10 µg/mL]
CCCc1cc(=O)[nH]c(SCC(=O)CSc2nc(CCC)cc(=O)[nH]2)n1 | 40
CCCCCCOC(=O)c1ccccc1NC(=O)/C=C/C(=O)O | 0
CC(Sc1nc2ccccc2s1)C(=O)Nc1nnc(C(C)C)s1 (stereo unspecified) | 0
O=C(O)CC1C(=O)NCCN1CCCc1ccccc1 (stereo unspecified) | 0
Cc1ccc(NS(=O)(=O)c2ccc(OCC(=O)Nc3cccc([N+](=O)[O-])c3)c(C)c2)cc1 | 40
O=C(NCc1ccccc1)c1ccc2nccnc2c1 | 0
CCC(C)NCCOCCOc1ccc(F)cc1 (stereo unspecified) | 0
C/C(=N\NC(=O)c1cccc(S(=O)(=O)Nc2ccccc2Cl)c1)c1ccc(-n2ccnc2)cc1 | 40
O=C(c1ccccc1)n1ccc(-c2cnc(-c3ccccc3)s2)n1 | 0
CCOC(=O)c1sc(=S)n(-c2cccc(OC)c2)c1N | 0
O=C1OCCC1Sc1nc2cc(Cl)ccc2s1 (stereo unspecified) | 0
COc1ccc(NC2c3ccccc3C(=O)N2c2ccccn2)cc1Cl (stereo unspecified) | u

Molecules from the list above that have an aryl thioether with sulfur outside any ring (14):
SMILES | quorum sensing
COc1cc(-c2nnc(SCC(=O)c3ccc(C)cc3)o2)cc(OC)c1OC | 0
CCOc1ccc(NC(=O)CCSc2nc3c(c(CC)c2C#N)C(=O)CC(C)(C)C3)cc1 | 40
COc1cc2nc(SCC(N)=O)n(CCC3=CCCCC3)c(=O)c2cc1OC | 0
COc1ccc(-n2c(SC)nnc2-c2c[nH]c3ccccc23)cc1 | 0
CCn1c(SCC(=O)NCc2ccc(C)cc2)nnc1-c1ccncc1 | 0
CCOc1ccc(-n2c(Cc3cc(=O)[nH]c(=O)[nH]3)nnc2SCC(=O)NC2CCCC2)cc1 | 0
O=C(CSc1cn(CCNC(=O)c2cccs2)c2ccccc12)NC1CCCC1 | 0
O=c1c(/C=N/Nc2ccccc2)c(Sc2nnnn2-c2ccccc2)nc2ccccn12 | 0
Cc1cccc(Cn2c(SCC(=O)Nc3ccccc3)nc3c2c(=O)[nH]c(=O)n3C)c1 | 0
O=C(CSc1nc2ccccc2o1)NCc1ccc2c(c1)OCO2 | 0
Cc1[nH]c2ccccc2c1SCC(=O)N1CCOCC1 | 0
CCCc1cc(=O)[nH]c(SCC(=O)CSc2nc(CCC)cc(=O)[nH]2)n1 | 40
CC(Sc1nc2ccccc2s1)C(=O)Nc1nnc(C(C)C)s1 (stereo unspecified) | 0
O=C1OCCC1Sc1nc2cc(Cl)ccc2s1 (stereo unspecified) | 0

Remaining list, next part:
SMILES | quorum sensing
Clc1ccc(CCC(Cn2ccnc2)Sc2c(Cl)cccc2Cl)cc1 (stereo unspecified) | 0[10 µg/mL]
CCCCSc1nnc([C@@H](NC(=O)OC(C)(C)C)C(C)C)o1 | 0
Cc1c(Cl)cccc1NC(=O)CSc1nnc(C)n1-c1ccccc1 | 0
Cc1cc(C)nc(SCCCn2c(=O)[nH]c3ccccc32)n1 | 240
COc1cccc(Cn2nnc(C(=O)Nc3cc(C)ccc3OC)c2N)c1 | 40
Cc1cc(C)n(CC(O)COc2cccc(OCC(O)Cn3nc(C)cc3C)c2)n1 (stereo unspecified) | 0
NC(=O)c1cc(Cl)cn(-c2ccccc2)c1=O | 80

High-throughput results: PubChem BioAssay, Southern Research Specialized Biocontainment Screening Center

Some of the compounds tested (hit frequency here may not be typical).
